Hedgehog: Hh protein inhibition, biochemical readout – plate reader, single concentration, primary screen (AID 588832) | 8,000 tested, under 10 active | inhibition, % at 30.3 µM | Biochemical plate reader assay, Hedgehog inhibition; hits give high values; in the data active = inhibition from about 57%;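 note: 0% = neutral control wells and 100% = positive control wells; cholesterol-driven self-cleavage of fly hedgehog protein by fluorescence polarization; read one hour after cholesterol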
* marks the source's active call; other numbers are inactive results.

SMILES	Hedgehog
Cc1cc(=O)oc2cc(O)ccc12	-0.1
CC1O[C@@H](OCC2O[C@@H](Oc3cc(O)c4c(c3)OC(c3ccc(O)cc3)CC4=O)[C@H](O)[C@@H](O)[C@@H]2O)[C@H](O)[C@H](O)[C@H]1O (some centres not stated)	-3.5

Source: PubChem

This is a subset; count on the stated rates, not on these rows.
